KSHV LANA nucl: inhibitors of KSHV LANA binding to nucleosomes; FITC-LANA1-23 / chicken nucleosome fluorescence polarization; active compounds read low; z-score (no concentration beside the values); hit rate 0.3% among 51,000; AID 720717;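 active = both repeat wells score below -2 in polarization z-score versus plate sample wells, excluding overly bright wells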;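 note: 100 nL library stock added to about 30 µL; numbers are from one replicate; some results filed as inactive read as strong as hits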
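Material: Purified chicken nucleosomes with FITC-labelled LANA N-terminal peptide (1-23) | Reagent: 50 nM FITC-LANA1-23 probe | Medium: TEN-BT buffer, pH 7.5 | Times: 10–45 min incubation at room temperature | Detection: Fluorescence polarization | Replication: Duplicates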
BasE inh: BasE siderophore biosynthesis inhibition | inhibition, % (concentration not given with the values) | purified BasE, fluorescence polarization binding displacement | hit rate 0.1% among 84,000;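 active = both replicates above 25% with normal brightness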;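 note: 0% = negative plate control signal and 100% = positive plate control signal; stock transfer was 100 nL into about 30 µL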
The depositor's hits bear a star; · = not tested or not shown; & = joins results of further samples. A portion of the library; count on the stated rates, not on these rows.

Value order – KSHV LANA nucl	BasE inh
(1) CC(=O)SCC(Cc1ccccc1)C(=O)NCC(=O)OCc1ccccc1 (stereo not given)
→ 0.004&0.46&0.27	-1.6
(2) COc1ccc(Cc2n[nH]c(=S)n2NC(=O)Nc2ccc(C)cc2)cc1
→ ·	-8.0
(3) Cc1nc2ccccc2n1C(=O)CCC(=O)O
→ -0.19	0.1
(4) CCC1(CC)Cc2ccccc2C(c2cc3ccccc3oc2=O)=N1
→ ·	1.6
(5) CSc1nc(N)nc(SC2C=CCCC2)c1C#N (stereo not given)
→ 0.22	-0.1
(6) O=C(Cc1c(F)cccc1Cl)N1CCC2(CC1)OCCO2
→ 0.88	2.1
(7) COC(=O)c1ccc(-n2ccnc2)cc1
→ -0.36	·
(8) CC(=O)Nc1ccc(S(=O)(=O)Nc2nccc(C3Cc4ccccc4C(=O)O3)n2)cc1 (stereo not given)
→ 0.75	3.6
(9) COc1cc(N)c(Cl)cc1C(=O)OCC(=O)N(C)c1ccccc1
→ ·	0.4
(10) COc1ccc(-n2c(SCCNCCO)nc3ccccc32)cc1
→ ·	-1.1
(11) CCc1ccccc1NC(=S)N(CCC(C)C)C(C)c1ccco1 (stereo not given)
→ 0.6	1.9
(12) O=C(CSc1ncn[nH]1)N1CCN(S(=O)(=O)c2ccccc2)CC1
→ ·	-0.8
(13) CN(C)/C=C/C(=O)c1cccc(C(F)(F)F)c1
→ -0.11	1.0
(14) Cn1c(N)c(C(=O)COC(=O)c2cc(S(=O)(=O)N3CCOCC3)ccc2F)c(=O)n(C)c1=O
→ ·	0.0
(15) N#C/C(=C1/NS(=O)(=O)c2ccccc21)c1nc2ccccc2[nH]1
→ ·	2.4
(16) NNC(=O)c1ccc(Oc2cccc(C(F)(F)F)c2)nc1
→ -0.056	0.4
(17) CC(=O)OC1CCC2CC1CCC2OC(C)=O (stereo not given)
→ -0.15	-0.3
(18) C=CCn1c(SC/C(O)=C(\C#N)c2nc3ccccc3[nH]2)nc2ccccc2c1=O
→ ·	3.6
(19) COc1ccc(CN(C)Cc2cccc(S(=O)(=O)N(C)C)c2)c(OC)c1OC
→ ·	4.2
(20) COc1ccc(-c2noc(CCCC(=O)NC(C)C)n2)cc1
→ 0.56	0.2
(21) Clc1ccc(-c2noc3ncnc(N4CCc5ccccc54)c23)cc1
→ ·	0.1
(22) N#Cc1ccccc1Sc1ccccc1C(=O)Nc1cc(Cl)ccc1-n1cncn1
→ ·	0.1
(23) CC(C)c1nnc(NC(=O)CSc2nc(-c3ccccc3)cc(=O)[nH]2)s1
→ 1.3	-1.4
(24) COc1cc(S(=O)(=O)n2nnc3ccccc32)c(OC)cc1C
→ -1.1	-0.2
(25) O=C(c1ccco1)N1CCN=C1SCc1ccccc1
→ -0.53	-0.5
(26) C=CCN1C(=O)C(O)(c2cnc(N)s2)c2ccccc21 (stereo not given)
→ ·	-0.5
(27) Nc1nc(O)c(C2=c3cc(Br)ccc3=NC2=O)s1
→ -0.27	3.7
(28) OCc1nc2ccccc2n1CN1CCN(Cc2cccs2)CC1
→ ·	1.6
(29) CCOC(=O)COc1c(C#N)sc2c1c(=O)n(-c1ccccc1)c(=S)n2-c1ccccc1
→ ·	0.9
(30) O=c1cc(-c2ccccc2)[nH]c(=O)[nH]1
→ ·	-0.4
(31) CCOC(=O)COc1ccc(C2NC(C(=O)O)CS2)cc1OCC (stereo not given)
→ 0.28	3.2
(32) N#CCCn1cc(/C=c2\sc3nc4ccccc4n3c2=O)c(-c2ccc(F)cc2)n1
→ ·	-0.5
(33) CC1(C(=O)C[n+]2cccc(C(N)=O)c2)CCC(=O)O1 (stereo not given)
→ -0.87	-2.1
(34) CN(CC(=O)Nc1ccc(F)c(F)c1F)C(=O)C1CCCCC1
→ ·	1.6
(35) COc1ccc(N2CCN(C(=O)CSc3nnc4c(C)cc5cc6c(cc5n34)OCCO6)CC2)cc1
→ 0.65	3.2
(36) CN(C)c1ccc(NC(=O)C23CC4CC(C2)CC(n2cnc(Cl)n2)(C4)C3)cc1
→ ·	2.2
(37) CCC(C)c1ccccc1NC(=O)N(C)C (stereo not given)
→ -0.76	1.6
(38) COc1ccc2cc(CN(Cc3cccnc3)Cc3nnnn3Cc3ccc(F)cc3)c(=O)[nH]c2c1
→ -0.35	-4.4
(39) Cc1[nH]c2cc(C(=O)O)ccc2c1CC(=O)O
→ -0.5	-1.3
(40) CC(C)OC(=O)c1ccc(CN2C(=O)NC(CCc3ccccc3)C2=O)o1 (stereo not given)
→ ·	-0.3
(41) O=C(CSc1nc2ccccc2c(=O)n1CCO)N(C1CCCCC1)C1CCCCC1
→ ·	-1.5
(42) CCCNc1c2c(nc3ccccc13)CC(C)(C)CC2=O
→ 0.67	-1.5
(43) Cc1sc2nc(CN3CCCCC3)nc(Cl)c2c1C
→ ·	1.2
(44) c1ccc(CN2CCN(C3CCNCC3)CC2)cc1
→ -1.4	0.8
(45) Cn1c(/C(C#N)=C/C2CC=CCC2)nc2ccccc21 (stereo not given)
→ 0.091	-0.1
(46) N#CCCS(=O)(=O)c1ccc(-c2ccc(S(=O)(=O)CCC#N)cc2)cc1
→ -0.55	4.8
(47) O=C(C1=NN(C2CCS(=O)(=O)C2)C(=O)CC1)N1CCc2ccccc2C1 (stereo not given)
→ ·	1.8
(48) CC(C)c1ccc(-c2nc(N3CCCCCC3)[nH]c(=O)c2C#N)cc1
→ -0.78	2.2
(49) CC(C)Nc1nc(-c2cccs2)cc(C(F)(F)F)c1C#N
→ ·	1.1
(50) C=CC1CCC(O)C(N(C)C(=S)Nc2ccccc2)C1 (stereo not given)
→ ·	-1.1
(51) CN1C(=O)/C(=c2\sc3nc4ccccc4n3c2=O)c2ccccc21
→ -0.4	2.2
(52) CCCN(CCC)Cc1ccc(CNc2nc(-c3ccc(OC)cc3)no2)o1
→ -0.18	-0.5
(53) CC1CCCC(NC(=O)c2cccc3c2SCCC3=O)C1C (stereo not given)
→ -1.1	0.6
(54) Cc1cc(-c2nnc(-c3cccc(C(F)(F)F)c3)o2)no1
→ ·	2.6
(55) CC1=NN(C2(C#N)CCCCC2)C(c2ccccc2)C1 (stereo not given)
→ -0.41	0.5
(56) COc1ccccc1-c1nnc2ccc3ccccc3n12
→ ·	-2.2
(57) C/C(CC(O)c1ccc2ccccc2n1)=N/O (stereo not given)
→ -0.24	4.5
(58) CN(C)S(=O)(=O)c1ccc(C(=O)NCCN2C(=O)CSC2=O)cc1
→ ·	1.0
(59) CN1CCN(C2=Nc3ccccc3Oc3ccc(Cl)cc32)CC1
→ 0.64&-0.33&-0.0085&-0.58	-4.0&-2.9
(60) C=CCn1c(SCc2cccc(OC)c2)nc2scc(-c3ccco3)c2c1=O
→ ·	-1.8

Reformatted with bars between the fields: three of the compounds above.
No. | Structure | KSHV LANA nucl | BasE inh
24 | COc1cc(S(=O)(=O)n2nnc3ccccc32)c(OC)cc1C | -1.1 | -0.2
25 | O=C(c1ccco1)N1CCN=C1SCc1ccccc1 | -0.53 | -0.5
26 | C=CCN1C(=O)C(O)(c2cnc(N)s2)c2ccccc21 (stereo not given) | · | -0.5

(further entries)
Value order – KSHV LANA nucl	BasE inh
(61) c1ccc(CNCCCN2CCOCC2)cc1
→ 0.74	2.2
(62) Cc1cc(NC(=O)NNc2ccccc2)no1
→ 1	-1.3
(63) CC(C)(C)c1cc(-c2nc(-c3ccccc3)no2)n(Cc2ccccc2)n1
→ 2.7	-1.2
(64) CCOC(=O)C1CCN(Cc2cc(Cl)c3ccccc3c2O)CC1
→ ·	2.5
(65) COC(=O)c1ccc(Oc2ccc(C(F)(F)F)cn2)cc1
→ 0.19	·
(66) CCOc1ccc(S(=O)(=O)N2CCCC(C(=O)N3CCN(c4ccccc4)CC3)C2)cc1 (stereo not given)
→ 0.49	0.8
(67) O=C(NCc1ccco1)c1ccccc1NC(=O)C1CCCCC1
→ 0.44	1.4
(68) Cn1c(N)c(S(=O)(=O)N2CCc3ccccc32)c(=O)n(C)c1=O
→ -0.21	4.0
(69) CCC(=O)Nc1ccc(C(=O)CSc2nnc(CN3CCCC3)n2-c2ccccc2)cc1
→ ·	-2.5
(70) CNCc1ccc(C)o1
→ 0.6	-1.3
(71) O=C(CCSc1ccccc1)N1CCOCC1
→ -0.34	0.8
(72) COC(=O)c1nn(-c2ccccc2)c(=O)c2c(N)sc(C)c12
→ ·	4.5
(73) COCOC(=O)c1c(-c2ccccc2Cl)noc1C
→ ·	1.8
(74) O=C(CSc1nnc(Nc2ccccc2)s1)N1CCCC1
→ ·	-0.9
(75) Cc1ccc(Cn2nnc3c(=O)[nH]c(C4CCCN(C(=O)c5ccco5)C4)nc32)cc1 (stereo not given)
→ -1	-1.3
(76) N#CC(c1nc2ccccc2nc1N1CCOCC1)S(=O)(=O)c1ccccc1 (stereo not given)
→ ·	-2.8
(77) Cc1cc(C(=O)COC(=O)c2nccnc2N)c(C)n1C
→ ·	4.2
(78) COc1cccn(Cc2nnc(SCC(=O)c3ccccc3)o2)c1=O
→ ·	-0.3
(79) CCOc1cc(C(=O)OCC(=O)Nc2cccc(C)c2)ccc1OCC(=O)N1CCOCC1
→ ·	-3.6
(80) CC(C#N)Sc1ncnc2ccccc12 (stereo not given)
→ ·	1.2
(81) O=C(CCN1C(=O)c2ccccc2C1=O)OCC(=O)c1ccc2c(c1)OCCO2
→ ·	0.6
(82) O=C(CN1CCN(C(=O)C2CCCO2)CC1)Nc1cc(C(F)(F)F)ccc1Cl (stereo not given)
→ -0.29	3.2
(83) CCOc1ccc(N2C(=O)CC(N3CCCCC3CC)C2=O)cc1 (stereo not given)
→ 0.38	2.1
(84) O=C1c2ccccc2C(=O)N1CC1COc2ccccc2O1 (stereo not given)
→ ·	0.2
(85) Oc1ccccc1-c1nnc(-c2ccccc2)c(-c2ccccc2)n1
→ ·	2.7
(86) O=C(CO/N=C\c1ccccc1)Nc1ccccc1C(=O)O
→ 1.4	2.1
(87) O=C(Cn1c(=O)n(Cc2nc(-c3ccccc3)no2)c(=O)c2cc3c(cc21)OCO3)Nc1ccccc1C(F)(F)F
→ ·	-0.1
(88) CC(C)Oc1ccc(CNCCC(c2ccccc2)c2ccco2)cc1 (stereo not given)
→ ·	-3.7
(89) OCn1c2ccccc2c2cc(Cl)ccc21
→ 0.74	2.6
(90) O=C(OC(c1ccco1)c1nccc2ccccc12)c1ccccc1 (stereo not given)
→ -0.041	0.0
(91) CC(C)(C)N(Cc1ccccc1)C(=O)CCCN1C(=O)/C(=C/c2cccs2)SC1=S
→ ·	-2.4
(92) COCCNC(=O)c1ccccc1NC(=O)c1ccc(F)cc1
→ 0.086	-1.5
(93) CCn1c(C(=O)OC)cc2oc(C)cc21
→ -0.64	1.9
(94) O=C(c1cnc2n(c1=O)CCS2)N1CCN(C(c2ccccc2)c2ccc(Cl)cc2)CC1 (stereo not given)
→ -0.26	1.1
(95) CC(C)c1ccc(Nc2nnns2)cc1
→ ·	1.2
(96) N=C1C(c2nc3ccccc3c(=O)[nH]2)=C(O)CN1Cc1ccccc1
→ -1.2	-0.5
(97) O=S(=O)(N/N=C/C1=C(N2CCOCC2)C(=C\c2ccccc2)/CC1)c1ccccc1
→ ·	1.7
(98) NC(=O)C1CCN(C(=O)CSc2ncccn2)CC1
→ ·	3.1
(99) CCC(CC)C(=O)N1c2ccccc2CCc2ccccc21
→ ·	-2.6
(100) C#CCSc1nccc(-c2cc(-c3ccc(Cl)cc3)no2)n1
→ -0.79	2.1

Single records (already shown).
Listed for CCn1c(C(=O)OC)cc2oc(C)cc21 : KSHV LANA nucl: -0.64; BasE inh: 1.9
Listed for O=C(CCN1C(=O)c2ccccc2C1=O)OCC(=O)c1ccc2c(c1)OCCO2 : KSHV LANA nucl: ·; BasE inh: 0.6
Listed for O=C(CO/N=C\c1ccccc1)Nc1ccccc1C(=O)O : KSHV LANA nucl: 1.4; BasE inh: 2.1

(further entries)
Value order – KSHV LANA nucl	BasE inh
(101) CCOC(=O)c1ccc(NC(=O)CSc2nc(NC(=O)c3ccccc3)c3c(C)c(C)oc3n2)cc1
→ -0.89	0.1
(102) COc1cccc(N2C(=O)CC(Sc3nnc(C)s3)C2=O)c1 (stereo not given)
→ 0.17	1.8
(103) COc1cc(CO)cc(Cl)c1OCC(N)=O
→ 0.11	1.4
(104) O=S(=O)(Cc1ccccc1)NNc1ccccc1
→ 1.8	-2.4
(105) O=C(c1ccc2c(c1)N(Cc1cccc(Cl)c1)C(=O)c1ccccc1S2=O)N1CCCCC1 (stereo not given)
→ -0.46	-0.2
(106) O=C(NC1CCCCC1)c1ccc(N2CC3CC(C2)c2cccc(=O)n2C3)c(NS(=O)(=O)c2ccc(F)cc2)c1 (stereo not given)
→ -0.13	0.5
(107) O=C(c1ccc2occc2c1)N1CC=C(c2ccccc2)CC1
→ -0.47	·
(108) CNc1c(NC(=O)c2ccco2)c(=O)oc2ccccc12
→ -0.2	0.8
(109) O=C(CSc1ccccc1)NCCc1ccccc1
→ -0.25	0.3
(110) Nc1c(C(=O)Nc2ccccc2)c2nc3ccccc3nc2n1CCCN1CCOCC1
→ -0.91	0.5
(111) COCCn1c(N)c(NCc2ccccc2)c(=O)n(CC(=O)Nc2cc(C)ccc2C)c1=O
→ ·	-1.5
(112) CCN(c1ccccc1)S(=O)(=O)c1ccc2c(c1)CC(C)N2C(=O)C1CC1 (stereo not given)
→ -0.47	-0.7
(113) COc1cc(N=C(SCc2c(C)c(C)c(C)c(C)c2C)N2CCOCC2)c(OC)cc1Cl
→ -0.31	·
(114) CC(=O)Nc1cc(C(=O)NCCN2CCN(c3ccccc3)CC2)ccc1S(=O)(=O)c1ccc(C)cc1
→ 0.56	0.3
(115) COc1ccc(S(=O)(=O)Nc2ccc(S(=O)(=O)N3CCCC3)cc2)cc1C
→ -0.074	-1.2
(116) Cc1cccc(N2CCN(C(=O)C(C)(C)Oc3ccc(Cl)cc3)CC2)c1C
→ ·	-2.3
